# Screens from PubChem BioAssay.
# AID923 = qHTS Assay for Allosteric/Competitive Inhibitors of Caspase-1: Spectroscopic Profiling in AFC Spectral Region | compound fluorescence, AFC spectral region (405/520 nm); almost no hit is shown here | actives 1.1% (n = 75,000) | AID 923, 2007 | Potency, µM (series often up to 57.5 µM), inactives show at the highest dose fluorescence increase, actives largely listed as activators; active = well fitted activation curve with a large enough effect; inconclusive = small, poorly fitted or top-dose-only effect;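 also: potency is read from the fitted curve at half-maximal effect; 0% is about no effect; scaled to a free AFC standard on each plate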
#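 Titrations up to 57 uM read every 20 sec for 3 min (405/520 nm) with 50 nM caspase 1 and 5 uM Ac-WEHD-AFC, pH 7.5 HEPES buffer. Fluorescence-vs-time intercept gave baseline, scaled against on-plate AFC standard.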
# A647 autofl = qHTS Assay for Spectroscopic Profiling in A647 Spectral Region; Compound fluorescence, A647 channel (570/671 nm), Tris buffer; max dye-equivalent concentration, M; 59,000 tested, under 10 active; AID 592, 2007; active means above 1 µM dye equivalent; inconclusive means 0.1 to 1 µM; inactive means 0.1 µM or less;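 also: values scaled relative to a standard on each plate; highest value over a series up to 38 µM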
#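 Spectral profiling of library compounds in pH 8.0 Tris: 15 min room-temperature incubation, single ex/em pair (570/671 nm), response normalized to Alexa 647 equivalents.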
# TSHR agonist = qHTS Assay for Agonists of the Thyroid Stimulating Hormone Receptor; Thyrotropin receptor (Homo sapiens), P16473; HEK293-CNG-TSHR cells (CNG channel as cAMP sensor), membrane potential dye, cAMP; Potency, µM (top dose mostly 57.1 µM), inactives show at the top dose activation, actives largely listed as activators; actives 0.48% (n = 73,000); AID 926, 2007; active = well fitted activation curve of enough size with the parental cells flat; inconclusive = any curve in the parental cells; inactive = parental cells flat and receptor cells flat or falling; also: potency is read from the fitted curve at half-maximal effect; % of control where 0% means no effect; weak receptor curves with flat parental cells got no call and are not listed
# Target sequence (P16473 whole entry, looked up): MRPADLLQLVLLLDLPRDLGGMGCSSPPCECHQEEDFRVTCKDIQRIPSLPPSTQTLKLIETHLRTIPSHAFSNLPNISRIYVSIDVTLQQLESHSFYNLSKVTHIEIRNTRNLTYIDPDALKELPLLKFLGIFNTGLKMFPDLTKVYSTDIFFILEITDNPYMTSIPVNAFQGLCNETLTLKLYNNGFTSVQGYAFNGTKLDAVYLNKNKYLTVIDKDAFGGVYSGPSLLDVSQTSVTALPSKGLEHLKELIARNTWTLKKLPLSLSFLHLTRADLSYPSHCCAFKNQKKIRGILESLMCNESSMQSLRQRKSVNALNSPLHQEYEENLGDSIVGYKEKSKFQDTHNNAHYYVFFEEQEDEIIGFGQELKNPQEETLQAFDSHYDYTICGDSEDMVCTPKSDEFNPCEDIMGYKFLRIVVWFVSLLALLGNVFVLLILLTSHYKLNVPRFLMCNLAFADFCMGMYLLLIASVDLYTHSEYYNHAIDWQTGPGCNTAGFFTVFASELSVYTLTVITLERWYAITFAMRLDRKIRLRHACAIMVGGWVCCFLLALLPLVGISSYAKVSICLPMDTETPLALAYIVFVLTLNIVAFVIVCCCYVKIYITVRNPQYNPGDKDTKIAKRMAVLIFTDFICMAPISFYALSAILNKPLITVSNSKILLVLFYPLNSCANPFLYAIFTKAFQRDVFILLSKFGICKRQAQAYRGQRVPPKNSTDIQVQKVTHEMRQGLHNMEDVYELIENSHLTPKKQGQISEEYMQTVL
#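 cAMP rise detected as CNG-channel membrane depolarization by fluorescent dye (emission 590 nm), 30 min after compound, following 60 min dye loading containing 100 uM RO 20-1724 at room temperature. Cells: TSHR/CNG HEK 293, with parental CNG HEK 293 as control.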
# Resorufin autofl = qHTS Assay for Spectroscopic Profiling in Resorufin Spectral Region. Compound fluorescence, resorufin region 547/598 nm, buffer; stronger effect = higher value. max dye-equivalent concentration, M. actives 0.04% (n = 59,000); active = above 10 nM dye equivalent; inconclusive = 1 to 10 nM; inactive = 1 nM or less; a few of its hits are not listed in these tables; also: highest value over a series up to 38 µM
#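 Tris 100 mM pH 8.0; compound added, 15 min RT; CCD imager read, ex 547 nm/em 598 nm; signal normalized to resorufin standard curve (six concentrations per plate) as dye-equivalent concentration.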
# A488 autofl = qHTS Assay for Spectroscopic Profiling in A488 Spectral Region; compound autofluorescence, A488 spectral region, dye equivalency; stronger effect = higher value; max dye equivalency, M; actives 0.1% (n = 59,000); AID 591, 2007; active = above 10 nM dye equivalent; inconclusive = 1 to 10 nM; inactive = 1 nM or less; about half of its hits are not listed in these tables;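 also: highest value over a series up to 38 µM; compound alone in buffer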
#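 Autofluorescence read at ex 480/em 540 nm after 15 min RT in 100 mM Tris pH 8.0; compound signal normalized to A488 standard series on each plate, reported as dye-equivalent concentration at each test concentration.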
# Active calls of the source: *; i = inactive; u = inconclusive; x = not tested or not shown; [ ] = remark or other dose.
SMILES,AID923,A647 autofl,TSHR agonist,Resorufin autofl,A488 autofl
Cn1cccc1C(=O)c1ccc(Cl)cc1Cl,-0.2%,7.4e-09,15.5%,i,i
COc1ccccc1NC(=O)CN1C(=O)C2(OCCCO2)c2ccccc21,1.9%,1.32e-08,9.4%,i,i
CC1Cc2ccccc2N1C(=O)CCNS(=O)(=O)c1cccc2nsnc12 (stereo not given),-2.5%,1e-09,-3.7%,i,i
CCOc1cc2[nH]c(=O)n(CCCCC(=O)NCc3ccco3)c(=O)c2cc1OCC,2.5%,8e-09,-4.6%,i,i
CC1CCCCN1C(=O)CSc1nc2ccccc2n1CC(=O)N1CCc2ccccc21 (stereo not given),0.5%,1e-09,11.9%,i,i
Cc1ccc(-c2noc(CCC(=O)NCCc3ccccc3Cl)n2)cc1,0.0%,1e-09,u,i,i
COc1ccc(-c2noc(CCC(=O)Nc3cccc(C)c3)n2)cc1,-2.0%,1e-09,1.5%[11.4 µM],i,i
CCC(C)NC(=O)C(Cc1ccccc1)n1cccc1 (stereo not given),-0.8%,x,19.7%,x,x
O=C(CN1CCCCC1)Nc1cc(Cl)ccc1Cl,-1.3%,1.2e-09,2.4%,i,i
O=C(O)[C@H](Cc1ccccc1)NC(=O)N1CCOCC1,2.7%,2.2e-09,1.9%,i,i
CCOC(=O)Cc1nnc(NC(=O)C(CC)Sc2nncn2C)s1 (stereo not given),0.1%,x,4.3%,x,x
CC(=O)Nc1c(I)c(NC(C)=O)c(I)c(C(=O)O)c1I,x,1e-09,x,i,i
CS(=O)(=O)N1CCN(C2CCN(Cc3ccccc3)CC2)CC1,0.0%,1e-09,-1.7%,i,i
CC(CN1CCN(C)CC1)OC(=O)c1ccccc1Cl (stereo not given),-4.1%,4.94e-08,-1.7%,i,i
CCOC(=O)C1CCN(S(=O)(=O)c2ccc(NC(=O)OC)cc2)CC1,1.3%,1e-09,10.3%,i,i
CS(=O)(=O)Nc1cccc(-c2nc(-n3ccnc3)c3ccccc3n2)c1,4.0%,1.4e-08,u,i,i
CCOC(=O)Nc1cccc(Nc2ccccc2)c1,0.6%,1.1e-09,-13.7%,i,i
CN(CCC(=O)O)S(=O)(=O)c1ccccc1,0.5%[11.5 µM],1e-09,8.1%[11.4 µM],i,i
CCCn1c(SCc2ccc(Cl)cc2)nc2c1c(=O)[nH]c(=O)n2C,-0.6%,1e-09,u,i,i
OC(CNCC1CCCO1)Cn1c2ccccc2c2ccccc21 (stereo not given),-1.4%,6e-09,8.4%,i,i
COc1ccc(OC)c(C(O)c2nc3ccccc3n2C(C)C)c1 (stereo not given),-0.5%,7.58e-08,x,i,i
COc1cc(C)nc(N(Cc2ccccc2)S(=O)(=O)c2ccccc2)n1,0.3%,4e-09,u,i,i
CC(=O)Nc1cccc(Cn2cccn2)c1,0.4%,4.2e-09,u,i,i
O=C1CCCN1c1ccc(S(=O)(=O)NCc2ccco2)cc1,x,1e-09,x,i,i
CCC1(CC)Cc2ccccc2C(N)=C1C#N,-3.4%,4.3e-09,u,i,i

# Next part.
SMILES,AID923,A647 autofl,TSHR agonist,Resorufin autofl,A488 autofl
CC1CCCCC1NS(=O)(=O)c1ccc(S(=O)(=O)NCc2ccncc2)cc1 (stereo not given),0.4%,3.32e-08,3.7%,i,i
Nc1nc2ncc(CNc3ccc(C(=O)N[C@@H](CCC(=O)O)C(=O)O)cc3)nc2c(=O)[nH]1,2.4%,3e-08,x,i,i
COc1ccc(-c2nnc3sc(C(C)N4C(=O)c5ccccc5C4=O)nn23)cc1 (stereo not given),-2.5%,x,27.6%,x,x
COCCN(CC(=O)Nc1ccccc1C)S(=O)(=O)c1ccc(S(=O)(=O)N2CCCC2)cc1,0.1%,5.43e-08,4.5%,i,i
CCC(C)Sc1nc2c(c(=O)[nH]c(=O)n2C)n1CCc1ccccc1 (stereo not given),-0.4%,3.1e-09,u,i,i
O=S(=O)(c1ccc(S(=O)(=O)N2CCN(C/C=C/c3ccccc3)CC2)cc1)N1CCCC1,3.2%,1.1e-09,15.6%,i,i
O=C(CN(C1CCCCC1)S(=O)(=O)c1ccc(F)cc1)NCc1ccncc1,3.4%,x,11.9%,x,x
COc1ccc(CN2CCN(S(=O)(=O)c3ccc(NC(C)=O)cc3)CC2)cc1OC,-0.9%,1e-09,-5.2%,i,i
Cc1csc(=Nc2c(C)n(C)n(-c3ccccc3)c2=O)n1Cc1ccccc1,-1.8%,6.7e-09,0.9%,i,i
c1ccc2c(c1)ccc1ncccc12,-0.4%,x,9.9%,x,x
COc1ccc(C(=O)N2CCN(S(=O)(=O)c3cc(Cl)ccc3OC)CC2)cc1,-1.3%,1e-09,-6.0%,i,i
O=C(Nc1cnn(Cc2ccc(Cl)cc2Cl)c1)c1cc(-c2cccs2)on1,0.9%,1.9e-09,1.7%,i,i
CC(=O)c1ccc(N2CCN(CCC#N)CC2)c(F)c1,0.1%,x,-3.6%,x,x
Cc1cccc(C(=O)N2CCN(Cc3ccc4c(c3)OCO4)CC2)c1,0.5%,x,10.0%,x,x
Cc1ccc(C)c(S(=O)(=O)NCCOC(=O)Nc2sc(=S)n(C)c2C)c1,-2.9%,x,-5.1%[11.4 µM],x,x
C=CCOc1ccccc1CNCc1cccnc1,-0.5%,1e-09,5.9%,i,i
Nc1nc(-c2ccco2)nc(N2CCCCC2)n1,2.0%,3.18e-08,0.4%,i,i
Cc1cc(C(C)(C)C)cc(C)c1COC(=O)C1CCC(=O)N1 (stereo not given),-1.8%,5.35e-08,18.7%,i,i
O=C(NCCN1CCC(Cc2ccccc2)CC1)C1CCCN(S(=O)(=O)c2cnc[nH]2)C1 (stereo not given),-0.4%,x,-4.4%,x,x
COCCN(CC(=O)NCc1ccc(F)cc1)C(=O)CCC(=O)Nc1nccs1,1.2%,1.71e-08,-3.7%,i,i
COc1ccccc1NC(=O)N(Cc1ccco1)Cc1cc2c(C)ccc(C)c2[nH]c1=O,-1.2%,1.94e-08,7.6%,i,i
O=C1CC(N2CCN(C3CCc4ccccc4C3)CC2)C(=O)N1c1ccccc1 (stereo not given),0.9%,x,u,x,x
Cc1ccc(C)c(C(=O)CC2(O)C(=O)Nc3ccccc32)c1 (stereo not given),-0.5%,4e-09,4.9%,i,i
c1cncc(-c2nc(Oc3ccc(-c4nnco4)cc3)c3c4c(sc3n2)CCCC4)c1,-0.3%,3.47e-08,u,i,i
O=C(NCCC1=CCCCC1)c1ccc(CN2CCOCC2)cc1,-0.2%,1e-09,0.0%,i,i

# (more compounds)
SMILES,AID923,A647 autofl,TSHR agonist,Resorufin autofl,A488 autofl
Cn1nc(-c2ccc(Cl)cc2)c2cc(C(=O)NCCCN3CCCC3)sc21,-1.6%,x,4.9%,x,x
Cc1ccc2c(c1)C1C=CCC1C(C(=O)O)N2 (stereo not given),5.8%,1.16e-08,-6.4%,i,i
Clc1ccccc1Cn1nnc2c(NCCN3CCOCC3)ncnc21,-2.3%,4.07e-08,-1.2%,i,i
Nc1nc2n(n1)C(c1ccco1)CC(c1ccc(Cl)c(Cl)c1)N2 (stereo not given),-0.6%,1e-09,0.4%,i,i
CCOC(=O)N1CCC(NC(=O)CNS(=O)(=O)c2ccc(Br)s2)CC1,-0.8%,4.8e-09,2.8%,i,i
CCOc1ccc(NC(=O)C2CCCN(S(=O)(=O)c3c(C)n[nH]c3C)C2)cc1 (stereo not given),-1.7%,x,1.5%,x,x
O=C(CCN1CCCCC1)N1CCc2c([nH]c3ccccc23)[C@H]1c1cccnc1,0.4%[11.5 µM],1e-09,1.6%[11.4 µM],i,i
COc1ccc(-c2nnc(SCC(N)=O)n2N)cc1,-0.3%,7.16e-08,-9.0%,i,i
CCOc1ccc(Nc2nc(CC(=O)OC)cc(=O)[nH]2)cc1,-3.5%,1.21e-08,-2.4%,i,i
Brc1ccc(Oc2nsnc2N2CCOCC2)cc1,-0.5%,1.54e-08,15.1%,i,i
Cc1ccc2c(c1)NC(=O)C(CC(=O)NCCCN1CCc3ccccc3C1)O2 (stereo not given),5.1%,x,8.1%,x,x
COc1ccc(-c2nc3c(c(SCC(=O)N4CCOCC4)n2)COC(C)(C)C3)cc1,3.3%,x,-2.3%,x,x
COc1ccc(S(=O)(=O)N2CCCN(CC(=O)Nc3ccc4c(c3)OCO4)CC2)cc1,0.1%,3.85e-08,6.2%,i,i
NC1=C(c2ccc(F)cc2)C(=O)CS1,4.6%,1e-09,-1.0%,i,i
CCN(CC)S(=O)(=O)c1ccc(O)c(C(=O)OCC(=O)N(C)Cc2ccccc2)c1,0.3%,1e-09,10.8%,i,i
COC(=O)c1ccc(C(/C=C/[C@@H](C)C(=O)NCCN2CCCC2)NC(=O)OCc2ccccc2)cc1 (stereo not given in full),0.0%,x,6.3%,x,x
Cc1ccc(-c2ccc(=O)n(CCC(=O)NCCN3CCCCC3C)n2)cc1 (stereo not given),0.5%,1e-09,u,i,i
CCNc1nc2c(c(=O)[nH]c(=O)n2C)n1Cc1ccc(F)cc1,1.1%,x,-6.1%,x,x
CCc1ccc(N2CC(C(=O)OCC(=O)NC3CCS(=O)(=O)C3)CC2=O)cc1 (stereo not given),1.7%,3.1e-09,4.2%,i,i
CC1CCN(CC(=O)N2c3ccccc3Sc3cc4ccccc4cc32)CC1,1.2%[11.5 µM],1e-09,x,i,i
CCOC(=O)c1cccc(NC(=O)CSc2nnc(C3CCCCC3)n2C)c1,-1.5%,4.6e-09,3.3%,i,i
CC(=O)c1ccc(OCC(O)CN2CCC(C)CC2)cc1 (stereo not given),0.5%,x,-5.9%,x,x
Cc1nc(NCCNC(=O)c2ccco2)c2c(C)c(C)sc2n1,-1.7%,5.73e-08,-0.6%,i,i
O=S(=O)(Nc1ccc2c(c1)nc1n2CCN(Cc2ccccc2)C1)c1ccccc1,6.5%,3.4e-09,16.7%,i,i
CCOC(=O)N1CCN(C(=O)CSc2nnc(-c3ccccc3OC)o2)CC1,-0.8%,3.49e-08,-3.8%,i,i

# The list continues.
SMILES,AID923,A647 autofl,TSHR agonist,Resorufin autofl,A488 autofl
CCn1c(SCC(=O)c2[nH]c(C)c(C(C)=O)c2C)nnc1-c1cccs1,1.8%,1e-09,x,i,i
Cc1cc(C(F)(F)F)nc(NCc2ccc(F)cc2)n1,-2.2%,1e-09,3.3%,i,i
Cc1cc(C)nc(-n2nc(C)c(Sc3ccc(F)cc3)c2N)n1,-0.9%,1.02e-08,3.6%,i,i
Cc1ccccc1-n1c(SCC(=O)N2CCOCC2)nc(O)cc1=O,-1.1%,1.87e-08,-9.9%,i,i
COC(=O)c1sc2nc(-c3ccccc3)nc(N3CCN(C)CC3)c2c1C,-1.0%,4.9e-09,-16.6%,i,i
O=C(NCCCN1CCOCC1)c1ccc(Br)cc1,-0.5%,x,u,x,x
COC(=O)[C@@]1(Cc2ccccc2)C=C[C@@H](C)N1C(=O)c1ccccc1,0.8%,x,u,x,x

# Molecules shown so far with a furan ring, fused or not (six):
SMILES,AID923,A647 autofl,TSHR agonist,Resorufin autofl,A488 autofl
CCOc1cc2[nH]c(=O)n(CCCCC(=O)NCc3ccco3)c(=O)c2cc1OCC,2.5%,8e-09,-4.6%,i,i
O=C1CCCN1c1ccc(S(=O)(=O)NCc2ccco2)cc1,x,1e-09,x,i,i
Nc1nc(-c2ccco2)nc(N2CCCCC2)n1,2.0%,3.18e-08,0.4%,i,i
COc1ccccc1NC(=O)N(Cc1ccco1)Cc1cc2c(C)ccc(C)c2[nH]c1=O,-1.2%,1.94e-08,7.6%,i,i
Nc1nc2n(n1)C(c1ccco1)CC(c1ccc(Cl)c(Cl)c1)N2 (stereo not given),-0.6%,1e-09,0.4%,i,i
Cc1nc(NCCNC(=O)c2ccco2)c2c(C)c(C)sc2n1,-1.7%,5.73e-08,-0.6%,i,i

# Only part of the results is shown; the hit share may differ from the screen's.
